Assay outcomes from PubChem.
Polio RdRp inh – poliovirus RNA polymerase inhibition; P03300; poliovirus polymerase elongation, fluorescence polarization; stronger effect = lower value; % elongation, % (compound at 16.7 µg/mL); 0.66% of 150,000 active; AID 588519; in the data active = % elongation below about 90%; also: some results filed as inactive read as strong as hits
Target sequence (P03300 1749-2209 limits assumed): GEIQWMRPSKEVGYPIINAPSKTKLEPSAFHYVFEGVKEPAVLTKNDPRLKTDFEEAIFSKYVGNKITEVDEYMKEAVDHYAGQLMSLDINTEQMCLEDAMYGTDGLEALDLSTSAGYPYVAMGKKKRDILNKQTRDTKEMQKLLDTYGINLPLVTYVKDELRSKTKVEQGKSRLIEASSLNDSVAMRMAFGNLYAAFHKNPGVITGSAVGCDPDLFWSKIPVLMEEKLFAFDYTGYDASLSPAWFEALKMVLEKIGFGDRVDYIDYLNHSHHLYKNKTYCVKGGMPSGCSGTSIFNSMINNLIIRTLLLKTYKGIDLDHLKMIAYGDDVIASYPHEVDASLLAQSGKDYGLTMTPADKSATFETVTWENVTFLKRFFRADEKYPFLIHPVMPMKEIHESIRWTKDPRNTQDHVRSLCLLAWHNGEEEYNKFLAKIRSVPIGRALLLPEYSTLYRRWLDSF
Polio RdRp inh intensity – recorded beside Polio RdRp inh, whose call it bears; % elongation; measured here: total intensity read-out; formula for this scale not given here;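 total fluorescence in place of polarization; lower means less elongation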
An asterisk follows results filed as active. The list is partial (hit frequency here may not be typical).

SMILES	Polio RdRp inh	Polio RdRp inh intensity
COc1cc(NC(=O)c2ccc(C(=O)Nc3cc(OC)c(Cl)cc3OC)cc2)c(OC)cc1Cl	108	111
Oc1c(C(c2cccc(Br)c2)N2CCCC2)sc2nc(-c3ccco3)nn12 (stereo not given)	100	105
Cc1ccc(-n2ncc(C(=O)Nc3ccc4c(c3)OCCO4)c2C2CCN(C(=O)OC(C)(C)C)CC2)cc1C	109	110
CCN1CCN(C(=O)c2ccc3c(c2)N(Cc2cccc(Cl)c2)C(=O)c2ccccc2S3=O)CC1 (stereo not given)	109	117
Cc1cccc(N2CCN(C(=O)c3noc4c3COc3ccc(C)cc3-4)CC2C)c1 (stereo not given)	108	110
O=C(Nc1ccc(OC(F)(F)F)cc1)c1noc2c1CCCC2	105	110
Cc1nc(-c2ccc(F)cc2)sc1CCNC(=O)c1cccs1	105	99
Cc1ccc2nc3sc(C(=O)Nc4ccc(F)cc4)cc3cc2c1	105	110
CC(C)Oc1ccccc1NC(=O)CSc1nccn1C	109	111
Cc1c(CC(=O)N2CCCCC2)c(=O)oc2cc(O)ccc12	107	114
Cc1nnc2c3ccccc3nc(Nc3cccc(O)c3)n12	109	107
Cc1nnc(NC(=O)c2nc(SCc3ccccc3F)ncc2Cl)s1	113	102
CCc1nn(CC(=O)NCCc2ccc(OC)c(OC)c2)c(=O)c2cc3occc3n12	106	108
CCCC(=O)N1c2nc(C(C)C)nn2C2(CCCCC2)[C@@H]2CCCC[C@@H]21	103	106
CCOCCc1nn2c(=O)cc(COC(=O)c3ccccc3NC(=O)C3CCCCC3)nc2s1	103	106
CCOCCCNC(=O)c1ccc(-n2c(-c3ccccc3)cc3c2CCCCC3)cc1	102	104
COc1ccc(Cl)cc1-n1cc(-c2ccccc2)nc1SCC(=O)Nc1ccc(C)cc1	109	109
COc1cc2nc(SCC(=O)Nc3cccc(C)c3)n3nc(-c4ccccc4)nc3c2cc1OC	102	102
Cc1ccc(NC(=O)c2cccn(Cc3ccccc3C)c2=O)c(C)c1	108	116
COc1ccc(OC)c(NC(=O)Cn2ncc3c2-c2ccccc2OC3)c1	108	111
CC1CCCCN1C(=O)CSc1nc(-c2ccccc2)no1 (stereo not given)	97	105
CCOc1ccc(N(CC)S(=O)(=O)N2CCCC(C(=O)Nc3ccc(NC(C)=O)cc3)C2)cc1 (stereo not given)	111	112
Cc1nn(-c2ccccc2)c2c1N(CC(=O)N1CCN(c3ccc(Cl)cc3)CC1)C(=O)CS2	104	108
CCOC(=O)c1ccc(Nc2nn3c(=O)c4ccccc4nc3s2)cc1	104	110

Copied from the entries so far, seven compounds:
SMILES	Polio RdRp inh	Polio RdRp inh intensity
CCOCCCNC(=O)c1ccc(-n2c(-c3ccccc3)cc3c2CCCCC3)cc1	102	104
COc1ccc(Cl)cc1-n1cc(-c2ccccc2)nc1SCC(=O)Nc1ccc(C)cc1	109	109
COc1cc2nc(SCC(=O)Nc3cccc(C)c3)n3nc(-c4ccccc4)nc3c2cc1OC	102	102
Cc1ccc(NC(=O)c2cccn(Cc3ccccc3C)c2=O)c(C)c1	108	116
COc1ccc(OC)c(NC(=O)Cn2ncc3c2-c2ccccc2OC3)c1	108	111
CC1CCCCN1C(=O)CSc1nc(-c2ccccc2)no1 (stereo not given)	97	105
CCOc1ccc(N(CC)S(=O)(=O)N2CCCC(C(=O)Nc3ccc(NC(C)=O)cc3)C2)cc1 (stereo not given)	111	112

Continuation.
SMILES	Polio RdRp inh	Polio RdRp inh intensity
O=C(Nc1ccc(Cl)cc1C(=O)c1ccccc1)c1ccccc1Br	101	105
CCc1ccc(OCCSc2nc(-c3cccc(C)c3)nc3cc(=O)[nH]n23)cc1	107	112
CCc1ccccc1NC(=O)c1cc(S(=O)(=O)N(CC)c2ccccc2)ccc1F	112	115
CC(CNC(=O)Cn1c(-c2cccs2)cc2cc(Cl)ccc21)c1ccccc1 (stereo not given)	103	107
CCOc1cc(C2CC(=O)Nc3c2c(C)nn3-c2nc(C)cc(C)n2)ccc1O (stereo not given)	111	110
Cc1cccc(N2C(=O)N(Cc3ccc(C(C)(C)C)cc3)c3ccccc3S2(=O)=O)c1	106	111
Cc1cccc(NC(=O)CSc2nc(-c3cccc(C)c3)nc3c2Cc2c(CO)cnc(C)c2O3)c1	114	104
Cc1ccc(NC(=O)Cn2c(=O)n(Cc3ccco3)c(=O)c3ccc(C(=O)NC4CCCC4)cc32)c(C)c1	106	111
CCCCC(=O)NCc1nc2cccnc2n1Cc1ccc(OC)cc1	106	111
Cc1ccc(C)c(NC(=O)C2CCN(c3cc(C)nc4c(-c5ccc(Cl)cc5)c(C)nn34)CC2)c1	109	112
CC(=O)c1c(C)oc2ccc(N(C(=O)c3ccncc3)S(=O)(=O)c3ccc(F)cc3C)cc12	105	96
CCCCC(=O)OC1=CN(Cc2ccccc2)S(=O)(=O)c2ccccc21	114	102
CCOC(=O)c1c(C)[nH]c(C)c1S(=O)(=O)NCC(=O)Nc1ccc(CC)cc1	109	115
CCc1ccc(NC(=O)C(Cc2ccccc2)NS(=O)(=O)c2ccc3c(c2)c(=O)n(C)c(=O)n3C)cc1 (stereo not given)	105	105
Cc1ccc(CNC(=O)CCc2c(C)nc3c4c(C)cc(C)nc4nn3c2C)cc1	105	108
CCC1CN(C(=O)NCc2ccc(F)cc2)c2ccccc2O1 (stereo not given)	106	107
Cc1c(Cl)cccc1NC(=O)Nc1ccc2snnc2c1	113	114
Cc1ccc(-n2ncc(C(=O)NCCN3CCN(C)CC3)c2C2CCN(C(=O)OC(C)(C)C)CC2)c(C)c1	101	100
Cc1ccc(NC(=O)c2nc(S(C)(=O)=O)ncc2N(Cc2ccc(C(C)(C)C)cc2)Cc2ccco2)cc1C	108	106
CC(=O)c1cccc(NC(=O)CCS(=O)(=O)c2cc3c(cc2C)NC(=O)CO3)c1	106	99
COc1ccc(-c2nn(C)c3sc(C(=O)N4CCN(c5ccccc5F)CC4)cc23)cc1OC	108	110
CCC1=C(c2ccc(C)cc2)S(=O)(=O)N=C1N1CCC(C(=O)NCc2ccc(C)cc2)CC1	107	109
Cc1ccccc1NS(=O)(=O)c1ccc2[nH]c3c(c2c1)CCCCC3	108	113
O=c1oc2cc(O)ccc2cc1-c1nnc(Nc2ccccc2F)s1	90	245
COC(=O)c1ccccc1NC(=O)c1ccc2nc(Cc3ccccc3)oc2c1	106	105
Cc1cccc(-n2c(=O)c3c(c4cc(C)ccc4n3C)n(CC(=O)NCCC3=CCCCC3)c2=O)c1	107	113
CNC(=O)c1c(NC(=O)/C=C/c2ccccc2)sc2c1CCC2	108	117
COc1cccc(N2C(=O)C(CC(=O)Nc3ccc(F)cc3)N(CCC3=CCCCC3)C2=O)c1 (stereo not given)	101	103
CCCCN(C(=O)c1cccc(S(=O)(=O)N2CCCCC2)c1)C1CCS(=O)(=O)C1 (stereo not given)	99	94
COc1ccc(NC(=O)c2cc3c(=O)n(Cc4ccco4)ccc3nc2C)c(OC)c1	95	98
CCCCOc1ccc(C(=O)Nc2ccc3c(c2)CCCN3S(=O)(=O)c2ccc(C)cc2)cc1	99	98
Cc1cccc(N2C(=O)C(CC(=O)Nc3ccc(Cl)cc3)N(Cc3ccco3)C2=O)c1 (stereo not given)	113	112
COc1cccc(CN2C(=O)N(c3ccc(C)cc3)C(=O)C2CC(=O)Nc2cc(OC)cc(OC)c2)c1 (stereo not given)	112	107
CC(C)CC(=O)NCc1nc2cccnc2n1Cc1ccccc1	111	109
O=S(=O)(c1ccccc1)c1nc(-c2ccc(Cl)cc2Cl)oc1N1CCCCC1	109	108
Cn1nc(C(=O)NCc2cccc(Cl)c2)c2c1-c1ccccc1SC2	115	119
CC(=O)c1cccc(NC(=O)C2CCN(S(=O)(=O)c3ccc4[nH]c(=O)ccc4c3)CC2)c1	106	108
COc1cc(-c2cc3n(C)c(C)c(CCC(=O)O)c(=O)n3n2)cc(OC)c1OC	109	110
Cc1ccc(NC(=O)C(=O)NCC(c2cccnc2)N2CCOCC2)cc1 (stereo not given)	110	114
COc1ccc(-n2cc(C(=O)N(CCN(C)C)Cc3ccccc3)c3ccccc3c2=O)cc1	101	104
O=C(Cn1cnc2c(nc3n2CCCCC3)c1=O)Nc1cccc(C(F)(F)F)c1	112	112
COC(=O)c1ccc(NC(=O)CSc2ccc(-c3sc(-c4ccccc4)nc3C)nn2)cc1	109	100
O=C(NCc1ccccc1Cl)c1cc(-c2ccccc2)n[nH]1	111	111
O=C1CC(c2ccc(F)cc2F)c2cc3c(cc2N1)OCO3 (stereo not given)	103	105
COc1ccc(C(=O)Nc2nc3c(s2)CCc2cc(OC)ccc2-3)cc1	80*	83*
COc1ccc(-c2noc(CSc3nnc(C)n3-c3ccc(C)c(C)c3)n2)c(OC)c1	101	103
Cc1ccc(CN(Cc2ccco2)C(=O)c2ccccc2Br)o1	102	107
COc1ccccc1NC(=O)c1c(-c2ccc(C)cc2)nnc2ccccc12	110	104
CCOc1ccc(-n2ccnc2SCC(=O)Nc2cc(C)ccc2C)cc1	102	104
COc1cccc(CSc2nc3ccncc3n2CC(=O)Nc2ccc(OC)c(OC)c2OC)c1	110	108
CCOc1ccccc1C1C(C(=O)Nc2ccccc2)=C(C)Nc2c(C(=O)Nc3ccc(F)cc3)cnn21 (stereo not given)	106	113
COC(=O)c1ccc(NC(=O)c2c(-c3ccccc3)c(-c3ccccc3)nn(C)c2=O)cc1	108	114
Cc1oc(-c2cccc(Br)c2)nc1CSc1nc2ncccc2[nH]1	111	110
CCOC(=O)c1ccc(N2C(=O)c3[nH]nc(-c4ccc(C)cc4)c3C2c2ccc(O)cc2)cc1 (stereo not given)	110	107
CCNC(=O)C1CCCN(c2ncnc3onc(C)c23)C1 (stereo not given)	110	114
COc1cccc(NC(=O)c2oc3ccccc3c2NC(=O)c2ccc(C(F)(F)F)cc2)c1	101	106
CCc1nn(-c2ccccc2)c2nc(-c3cccc(OC)c3)c3cc(OC)c(OC)cc3c12	102	107
COc1ccc(CN2C(=O)C(NC(=O)c3ccccc3OC)(C(F)(F)F)N=C2c2ccccc2)cc1 (stereo not given)	107	112
COc1cccc(-c2ccc3c(N)c(C(=O)Nc4cc(F)ccc4F)sc3n2)c1	104	105
Cc1ccc2nc(-c3ccc(C)c(NC(=O)Cc4ccccc4)c3)oc2c1	109	115

Molecules listed so far that have bromine (four):
SMILES	Polio RdRp inh	Polio RdRp inh intensity
Oc1c(C(c2cccc(Br)c2)N2CCCC2)sc2nc(-c3ccco3)nn12 (stereo not given)	100	105
O=C(Nc1ccc(Cl)cc1C(=O)c1ccccc1)c1ccccc1Br	101	105
Cc1ccc(CN(Cc2ccco2)C(=O)c2ccccc2Br)o1	102	107
Cc1oc(-c2cccc(Br)c2)nc1CSc1nc2ncccc2[nH]1	111	110

2 compounds drawn at random from the list so far, as already listed:
SMILES	Polio RdRp inh	Polio RdRp inh intensity
COc1ccc(CN2C(=O)C(NC(=O)c3ccccc3OC)(C(F)(F)F)N=C2c2ccccc2)cc1 (stereo not given)	107	112
COc1cccc(CN2C(=O)N(c3ccc(C)cc3)C(=O)C2CC(=O)Nc2cc(OC)cc(OC)c2)c1 (stereo not given)	112	107

Next results.
SMILES	Polio RdRp inh	Polio RdRp inh intensity
CCc1cccc(NC(=O)c2cc(S(=O)(=O)N3CCCCCC3)cn2C)c1	104	105
COc1ccc(S(=O)(=O)Nc2cccc(-c3ccc(N4CCCCCC4)nn3)c2)cc1OC	102	111
CC1=C(C(=O)Nc2cccc(C(F)(F)F)c2)C(c2ccccn2)n2ncnc2N1 (stereo not given)	110	113
Cc1nn(CCC(=O)NC(C)C)c(=O)c2nn(-c3ccccc3)c(C)c12	100	107
O=C(Cn1ncc2c3ccccc3n(Cc3cccc(Cl)c3)c2c1=O)NCc1cccs1	155	191
Cc1cc2n(n1)CCC(=O)N2Cc1ccc(C(=O)Nc2cccc(C(F)(F)F)c2)cc1	108	113
Cc1ccc(S(=O)(=O)n2nc(-c3ccc(Cl)cc3)nc2NCc2ccccc2)cc1	105	101
Cc1ccccc1C(=O)Nc1nnc(SCc2cc(=O)n3ccccc3n2)s1	103	107
CCOC(=O)c1cccc(NC(=O)c2sc3nc[nH]c(=O)c3c2C)c1	108	113
Cc1cc2nc(N(Cc3cccnc3)C(=O)c3ccc(Cl)s3)sc2cc1C	111	105
COc1ccc(N2C(=O)Cc3cc(OC)c(OC)cc3C2c2ccc(F)cc2)cc1 (stereo not given)	111	108
Cc1cc(NC(=O)c2oc3c(c2C)-c2[nH]ncc2CC3)ccc1Br	98	103
O=C(NC1CCCCC1)c1ccc2c(c1)N(Cc1ccc(Cl)cc1)C(=O)c1ccccc1S2=O (stereo not given)	107	108
CCOC(=O)c1c(S(=O)(=O)N2CCC(C(=O)NCc3cccc(OC)c3)CC2)c(C)n(C)c1C	107	101
CCOC(=O)c1ccc(NC(=O)c2sc3ccccc3c2Cl)cc1	111	112
COc1ccc(OC)c(/C=C/C(=O)Nc2ccc(C(=O)OCCC(C)C)cc2)c1	107	113
Cc1cc(C(=O)Nc2c(C)nn(Cc3ccc(F)cc3)c2C)no1	106	105
CCOc1ccccc1-n1nnc(S(=O)(=O)c2ccc(C)cc2)c1N	104	108
O=C1CN(C(=O)c2ccc(Cl)cc2Cl)C(c2ccc(F)cc2)c2cc(F)ccc2N1 (stereo not given)	108	112
CC(=O)N1CCC(N(Cc2ccco2)C(=O)Nc2cccc(C)c2)CC1	116	110
